Bcl-B Bim block: inhibitors of Bim-Bcl-B interaction, human; Q9HD36; bead-based flow cytometry, Bim peptide-Bcl-B binding; inhibition, % at 10 µM; 0.073% of 190,000 active;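 note: 0% = tracer peptide without compound and 100% = reference inhibitor peptide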
Bfl-1 Bim block: disrupts Bim binding to human Bfl-1. inhibition, % at 10 µM. Bead-based flow cytometry, Bim-Bfl-1 binding inhibition. AID 1008. 0.12% of 190,000 active;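 note: 0% = wells without compound plus tracer and 100% = blocker peptide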
Bim-Bcl-2: inhibitors of Bim-Bcl-2 interaction, human; P10415; Bead-based flow cytometry, Bim peptide-Bcl-2 binding; inhibition, % at 10 µM; 0.06% of 190,000 active; AID 950; in the data active = inhibition above about 40%; inconclusive = no clear call, values can overlap the other calls;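 note: 0% = no compound wells with probe peptide and 100% = reference peptide inhibitor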
Target sequence (P10415 whole entry, looked up): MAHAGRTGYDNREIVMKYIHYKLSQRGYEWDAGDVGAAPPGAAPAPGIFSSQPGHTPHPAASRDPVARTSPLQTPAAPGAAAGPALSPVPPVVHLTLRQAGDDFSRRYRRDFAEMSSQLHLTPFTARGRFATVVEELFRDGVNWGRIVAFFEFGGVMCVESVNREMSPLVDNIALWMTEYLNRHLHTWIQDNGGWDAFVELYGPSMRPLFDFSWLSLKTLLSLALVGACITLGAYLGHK
Bim-Bcl-W: inhibitors of Bim-Bcl-W interaction, human; 0.02% of 190,000 active; Q92843; inhibition, % at 10 µM; bead-based flow cytometry, Bim peptide-Bcl-W binding; AID 952;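 note: 0% = bound tracer without compound and 100% = peptide blocker; higher means less fluorescent Bim peptide bound to Bcl-W beads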
Bcl-XL Bim block: disrupts Bim peptide binding to human Bcl-XL; bead flow cytometry, fluorescence; 0.04% of 190,000 active; inhibition, % at 10 µM; AID 1007; Q07817
Target sequence (Q07817 whole entry, looked up): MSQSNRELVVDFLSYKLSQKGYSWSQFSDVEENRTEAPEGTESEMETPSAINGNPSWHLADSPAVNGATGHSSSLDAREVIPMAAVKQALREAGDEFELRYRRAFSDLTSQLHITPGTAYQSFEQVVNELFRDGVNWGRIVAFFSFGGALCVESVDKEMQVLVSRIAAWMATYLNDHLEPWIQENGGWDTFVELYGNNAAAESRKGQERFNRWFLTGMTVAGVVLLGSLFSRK
GSH fluor: GSH bead compound fluorescence profile | fluorescence (KMESF) at 10 µM | 0.25% of 190,000 active | GSH beads flow cytometry, compound fluorescence 488/530 nm; active compounds read high; in the data active = fluorescence above about 89;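 note: glutathione beads carrying GST-tagged Bcl family fusion proteins plus one bare bead set; values are compound well signal with DMSO vehicle wells as background; inactives centre near 16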
* = called active by the depositor; ? = inconclusive; · = not tested or not shown; & = joins results of further samples. Cut-off read from the data, not from the text of the source, unless noted: active = inhibition above about 40%.

| item | Molecule | Bcl-B Bim block | Bfl-1 Bim block | Bim-Bcl-2 |
| --- | --- | --- | --- | --- |
| 1 | CO[C@H]1C=CO[C@@]2(C)Oc3c(C)c(O)c4c(O)c(c(C=NN5CCN(C)CC5)c(O)c4c3C2=O)NC(=O)C(C)=CC=C[C@H](C)[C@H](O)[C@@H](C)[C@@H](O)[C@@H](C)[C@H](OC(C)=O)[C@@H]1C | -1 | 1 | -1 |
| 2 | NCCCC(=O)O | -4 | 0 | 3 |
| 3 | O=C(O)C1CCN(S(=O)(=O)/C=C/c2ccccc2)CC1 | -7 | -7 | -8 |
| 4 | C[C@]12CCC(=O)C=C1CC[C@@H]1[C@@H]2C(=O)C[C@@]2(C)[C@H]1CC[C@]2(O)C(=O)CO | -2 | 0 | 0 |
| 5 | COc1ccc(C(=O)/C=C/c2ccc(OC)cc2OC)c(O)c1 | -2 | -5 | -5 |
| 6 | C[C@H]1O[C@@H](O[C@H]2[C@@H](O)C[C@H](O[C@H]3[C@@H](O)C[C@H](O[C@H]4CC[C@@]5(C)[C@H](CC[C@@H]6[C@@H]5C[C@@H](O)[C@]5(C)[C@@H](C7=CC(=O)OC7)CC[C@]65O)C4)O[C@@H]3C)O[C@@H]2C)C[C@H](O)[C@@H]1O | -1 | 0 | -1 |
| 7 | CCN(CC)c1ccc2cc(-c3nc(-c4ccc(OC)cc4)cs3)c(=O)oc2c1 | · | · | ? |
| 8 | CN[C@H]1CC[C@@H](c2ccc(Cl)c(Cl)c2)c2ccccc21 | -4 | -1 | -5 |
| 9 | CN(C)CCCN1c2ccccc2CCc2ccccc21 | -2 | 0 | 3 |
| 10 | NCCNCCNCCN | -1 | 0 | 0 |
| 11 | O=C(O)CC(O)C(=O)O (stereo not given) | 2 | -1 | -2 |
| 12 | COc1ccc(/C=C/C(=O)c2ccc(OC)cc2OC)c(OC)c1 | -4 | -6 | -8 |
| 13 | CCc1nnc(NC(=O)c2cc(S(=O)(=O)N3CCOCC3)ccc2N2CCCCC2)s1 | -4 | 0 | -2 |
| 14 | COc1ccc(Cn2cc(C(=O)O)c(=O)c3ccccc32)cc1 | -2 | 0 | 0 |
| 15 | NC12CC3CC(CC(C3)C1)C2 | 1 | -1 | -9 |
| 16 | CCOC(=O)N1CCC(=C2c3ccc(Cl)cc3CCc3cccnc32)CC1 | -12&-6 | 0&0 | -2&-1 |
| 17 | Cc1cc(NS(=O)(=O)c2ccc(N)cc2)no1 | -2 | -2 | 0 |
| 18 | CN(C)CCOC(c1ccccc1)c1ccccc1 | -3&0 | 1&2 | 3&-2 |

| item | Bim-Bcl-W | Bcl-XL Bim block | GSH fluor |
| --- | --- | --- | --- |
| 1 | -3 | 0 | 17 |
| 2 | -3 | -5 | 20 |
| 3 | -1 | -4 | 39 |
| 4 | -1 | 1 | 17 |
| 5 | -1 | -4 | 21 |
| 6 | -2 | -6 | 20 |
| 7 | · | · | 445* |
| 8 | -1 | 0 | 70 |
| 9 | -3 | -1 | 20 |
| 10 | 2 | 0 | 21 |
| 11 | 0 | 1 | 17 |
| 12 | -5 | -6 | 21 |
| 13 | -3 | -3 | 73 |
| 14 | 3 | -1 | 19 |
| 15 | 0 | 1 | 21 |
| 16 | -5&-4 | 0&-3 | 20&67 |
| 17 | 0 | -1 | 22 |
| 18 | 0&-1 | 0&0 | 19&68 |

Only Bcl-XL Bim block, for 5 of the compounds above:
| # | SMILES | Bcl-XL Bim block |
| --- | --- | --- |
| 14 | COc1ccc(Cn2cc(C(=O)O)c(=O)c3ccccc32)cc1 | -1 |
| 15 | NC12CC3CC(CC(C3)C1)C2 | 1 |
| 16 | CCOC(=O)N1CCC(=C2c3ccc(Cl)cc3CCc3cccnc32)CC1 | 0&-3 |
| 17 | Cc1cc(NS(=O)(=O)c2ccc(N)cc2)no1 | -1 |
| 18 | CN(C)CCOC(c1ccccc1)c1ccccc1 | 0&0 |

Random excerpt: 4 entries already listed
| item | Molecule | Bcl-B Bim block | Bfl-1 Bim block | Bim-Bcl-2 |
| --- | --- | --- | --- | --- |
| 1 | CO[C@H]1C=CO[C@@]2(C)Oc3c(C)c(O)c4c(O)c(c(C=NN5CCN(C)CC5)c(O)c4c3C2=O)NC(=O)C(C)=CC=C[C@H](C)[C@H](O)[C@@H](C)[C@@H](O)[C@@H](C)[C@H](OC(C)=O)[C@@H]1C | -1 | 1 | -1 |
| 7 | CCN(CC)c1ccc2cc(-c3nc(-c4ccc(OC)cc4)cs3)c(=O)oc2c1 | · | · | ? |
| 17 | Cc1cc(NS(=O)(=O)c2ccc(N)cc2)no1 | -2 | -2 | 0 |
| 3 | O=C(O)C1CCN(S(=O)(=O)/C=C/c2ccccc2)CC1 | -7 | -7 | -8 |

| item | Bim-Bcl-W | Bcl-XL Bim block | GSH fluor |
| --- | --- | --- | --- |
| 1 | -3 | 0 | 17 |
| 7 | · | · | 445* |
| 17 | 0 | -1 | 22 |
| 3 | -1 | -4 | 39 |

Screening data: PubChem BioAssay, NMMLSC

The list is partial. The share of hits here may be higher or lower than overall.
